Source: PubChem
Six1-Eya2 blk: blocks human Six1 binding to Eya2; 360,000 tested, 0.56% active; AlphaScreen GST-Six1/His-Eya2 binding, biochemical; active compounds read low; control for the full effect not named in the record; activity change, % (concentration not given with the values); AID 651725; Q15475+O00167; in the data active = activity change below about -65%; inconclusive = about -30% to -65%; inactive = above about -30%; note: % is set by controls: 0 for no effect and ±100 for the full control effect
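GST-Six1 + His-Eya2 (5X stock: 250/500 nM); Tris pH 8.0, 300 mM NaCl, 0.05% BSA, 0.02% Tween 20; GSH donor/Ni acceptor beads; 1 h 37 °C dark; AlphaScreen readout.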
PINK1 modulator: changes PINK1 expression; AID 624263; 410,000 tested, 0.2% active; PINK1 immunofluorescence, high-content cytometry, 24 h; Potency, µM (highest dose often 76.6 µM), inactives show at the top dose activation (PINK1 increase), most hits filed as activators; active = well fitted activation curve with a large enough effect; inconclusive = small, poorly fitted or top-dose-only effect; inactive = flat fitted curve, though single readings scatter; cell line not stated here;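 note: potency is the fitted concentration of half-maximal effect; % of control where 0% means no effect; nearly all actives have a fitted effect of over 65% in size; a mitochondrial uncoupler was the plate control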
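PINK1 protein level read as immunofluorescence by microplate cytometer in a fixed, stained stable cell line after 24 h exposure to five compound concentrations, with CCCP as control.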
D2 potentiator: potentiates the human D2 dopamine receptor allosterically. potentiation, % (test concentration not listed). 360,000 tested, 0.23% active. P14416. DiscoveRx D2 beta-arrestin cells, luminescence, 90 min; 100% = 57 uM dopamine signal; active = potentiation of 50% or more; inconclusive = 30% to 50%; inactive = 30% or less;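 note: compound concentration not given in the record; tested on top of an EC20 dose of dopamine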
Target sequence (P14416 whole entry, looked up): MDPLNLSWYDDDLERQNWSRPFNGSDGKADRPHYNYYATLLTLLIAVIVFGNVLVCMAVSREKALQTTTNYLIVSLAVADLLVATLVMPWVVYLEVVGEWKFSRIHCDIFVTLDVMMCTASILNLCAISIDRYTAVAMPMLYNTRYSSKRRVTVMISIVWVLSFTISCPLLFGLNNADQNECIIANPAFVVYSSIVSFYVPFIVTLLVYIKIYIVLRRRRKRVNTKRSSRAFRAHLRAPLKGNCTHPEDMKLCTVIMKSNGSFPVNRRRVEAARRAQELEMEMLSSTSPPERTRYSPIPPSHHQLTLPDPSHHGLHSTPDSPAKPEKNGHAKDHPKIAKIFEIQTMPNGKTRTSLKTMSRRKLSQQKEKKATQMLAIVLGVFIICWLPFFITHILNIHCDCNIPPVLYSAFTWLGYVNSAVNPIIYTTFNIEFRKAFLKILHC
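D2 cells co-treated with compound plus 50 nM dopamine (EC20) for 90 min at 37 deg C to detect potentiation. Beta-arrestin recruitment was read as enzyme-fragment luminescence after 1 h at ambient temperature. Full response was set by 57 uM dopamine.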
D2 ag: activates the human D2 dopamine receptor; P14416; DiscoveRx PathHunter D2 beta-arrestin, luminescence, 90 min; 100% = 57 uM dopamine signal; activation, % (no concentration beside the values); 360,000 tested, 0.084% active; AID 624465; in the data active = activation above about 40%; inconclusive = about 15% to 40%; inactive = below about 15%; note: compound concentration not given in the record; the text of the record calls up to 30% inactive
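Agonist mode: compounds alone added to overnight-plated D2 PathHunter cells for 90 min at 37 C, with 57 uM final dopamine (EC100) defining full response. Beta-arrestin recruitment detected by chemiluminescent reagent, read after 1 h at ambient temperature.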
CtBP-E1A inh: blocks the CtBP interaction with E1A. AlphaScreen GST-E1A/His-CtBP binding, 1536-well; active compounds read low; control for the full effect not named in the record. activity change, % (concentration not given with the values). 340,000 tested, 0.49% active. AID 651724; in the data active means activity change below about -65%; inconclusive means about -30% to -65%; inactive means above about -30%; note: % is set by controls: 0 for no effect and ±100 for the full control effect
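AlphaScreen with 125 nM GST-E1A and 125 nM His-CtBP (5X stocks) in Tris pH 8.0, 300 mM NaCl, BSA, Tween 20, TCEP. Compounds preincubated 2 h at 37 deg C, then glutathione donor/nickel acceptor beads added for 1 h at 37 deg C in dark.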
TRPML1 agonist: activates the human TRPML1 channel; Q9GZU1; AID 624414; 410,000 tested, 0.12% active; TRPML1-expressing cells, Ca2+ dye fluorescence, FDSS; host cell line not named in the record; reference of the full effect not given here; activation, % (no concentration beside the values); in the data active = activation above about 50%; inconclusive = about 30% to 50%; inactive = below about 30%; note: 0% is about no effect; the text of the record puts the active cut at 80%
Target sequence (Q9GZU1 whole entry, looked up): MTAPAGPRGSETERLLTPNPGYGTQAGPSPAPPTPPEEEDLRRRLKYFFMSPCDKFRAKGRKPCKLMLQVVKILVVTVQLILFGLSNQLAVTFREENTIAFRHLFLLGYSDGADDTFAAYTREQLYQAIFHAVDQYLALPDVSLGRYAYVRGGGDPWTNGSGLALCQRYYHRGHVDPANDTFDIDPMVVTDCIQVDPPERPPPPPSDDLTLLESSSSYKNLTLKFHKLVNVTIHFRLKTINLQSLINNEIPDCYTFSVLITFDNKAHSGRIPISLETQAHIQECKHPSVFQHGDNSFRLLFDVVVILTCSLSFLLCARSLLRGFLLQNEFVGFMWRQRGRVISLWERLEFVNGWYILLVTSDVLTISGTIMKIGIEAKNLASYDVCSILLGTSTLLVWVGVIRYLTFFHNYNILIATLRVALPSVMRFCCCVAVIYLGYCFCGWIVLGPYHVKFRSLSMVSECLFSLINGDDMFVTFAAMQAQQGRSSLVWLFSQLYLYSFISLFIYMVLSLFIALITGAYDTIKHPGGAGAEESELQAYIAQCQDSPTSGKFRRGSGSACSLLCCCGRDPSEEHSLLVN
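Cells: TRPML1-DL, 1X Tet inducer, ~16 h at 37 degrees C/5% CO2. Dye: ABD Ca8 no-wash + quencher, 45-90 min RT. Read: 10 s baseline, compound add, 110 s agonist phase; 54-4 EC80 (4uM final), 110 s antagonist phase.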
Active calls of the source: *; u = inconclusive; x = no result given; & = joins results of further samples; [ ] = dose if it differs, or a comment.

entry	molecule	Six1-Eya2 blk	PINK1 modulator	D2 potentiator
1	Cc1cc(C)c2nc(NC(=O)c3cccc(S(=O)(=O)N4CCc5ccccc54)c3)sc2c1	-7	6.2%	-6
2	COc1cccc(CNC(=O)C(C)n2ccc3cc(S(=O)(=O)N4CCCCCC4)ccc32)c1 (stereo not drawn)	-3	-0.6%&-0.2%	4
3	CCC(C(=O)Nc1ccccc1OC)n1c(C(=O)OC)cc2ccsc21 (stereo not drawn)	1	-0.3%[38.3 µM]	3
4	Cc1ccc(CNC(=O)C2CCCN(c3cnccn3)C2)cc1 (stereo not drawn)	5	4.9%	-11
5	CC(=O)NCCCc1nc2ccccc2n1Cc1ccc(C)cc1	2	-1.6%	-35
6	Cc1ccc(S(=O)(=O)Nc2cccc(C(=O)N3CCN(c4ccccc4O)CC3)c2)cc1F	1	-2.7%	-2
7	O=C(c1ccc(NS(=O)(=O)c2cccc(F)c2)cc1)N1CCCC1	0	-1.1%	-8
8	COc1ccccc1CC(NC(C)=O)C(=O)NC1CCN(C(=O)c2ccc([N+](=O)[O-])cc2)CC1 (stereo not drawn)	1	0.4%	-1

entry	D2 ag	CtBP-E1A inh	TRPML1 agonist
1	-5.8	0	-0.3
2	2.5	-1	1.4&-0.5
3	-1.2	-9	3.5
4	-3.5	x	0.7
5	-3.0	0	-0.7
6	1.5	-2	1.4
7	-1.6	-3	-0.8
8	1.4	x	0.2

Next records.
entry	molecule	Six1-Eya2 blk	PINK1 modulator	D2 potentiator
9	Cc1ccc(Nc2nnc(SC3CCOC3=O)s2)c(C)c1 (stereo not drawn)	6	u	-1
10	CCN(CC)S(=O)(=O)c1ccc(F)cc1	9	13%[38.3 µM]	-5
11	O=C(CSc1cn[nH]n1)Nc1cccc(C(=O)O)c1	22	0.9%	0
12	Cc1occc1C(=O)N/N=C/C1=C(N2CCOCC2)C(=C\c2ccc(Cl)cc2Cl)/CC1	5	32µM*	-5
13	COc1ccc(CCNC(=O)c2cccc(S(=O)(=O)NC(C)c3ccccc3)c2)cc1 (stereo not drawn)	16	3.1%	-10
14	NC(=O)CCN(C(=O)c1cccc(S(=O)(=O)N2CCc3ccccc32)c1)c1ccccc1	3	2.0%	5
15	COCC(=O)N/N=C\c1ccccc1OC/C=C/c1ccccc1	1	-0.6%	-3
16	S=C(c1ccc(-c2ccc(Br)cc2)o1)N1CCCCC1	-26	-0.4%	-15

entry	D2 ag	CtBP-E1A inh	TRPML1 agonist
9	1.7	0	1.2
10	1.7	9	0.5
11	1.4	7	-0.6
12	-4.7	x	0.3
13	-1.4	x	-1.2
14	3.8	-3	0.7
15	2.6	3	1.5
16	-4.7	-17	-0.7

Going on with the list:
entry	molecule	Six1-Eya2 blk	PINK1 modulator	D2 potentiator
17	Cc1ccc([N+](=O)[O-])c(OCCn2cnc3ccccc32)c1	10	3.8%	-7
18	Cc1ccc(/C([O-])=C(/C(=S)NCc2ccccc2)[n+]2ccccc2)cc1[N+](=O)[O-]	-20	-1.0%	-4
19	O=C(Nc1ccccc1)Nc1ccc2ncoc2c1	-3	-1.6%	1
20	O=C(NCCCN1CCCC1=O)c1ccc2c(=O)n(Cc3ccco3)c(=S)[nH]c2c1	-16	0.1%	-5
21	Cc1nc2ccc([N+](=O)[O-])cc2c(=O)n1Cc1ccccc1Br	0	1.4%	-13
22	CCC1CN(C(=O)NCc2cccc(OC)c2)c2cc(Cl)ccc2O1 (stereo not drawn)	10	-2.5%&-0.7%	4
23	COC(=O)C1=C(C(=O)OC)C2(OC1c1ccccc1C)C(=O)c1ccccc1C2=O (stereo not drawn)	14	-0.3%	-13
24	CC(NC(=O)c1ccccc1)C(=O)N/N=C/c1ccco1 (stereo not drawn)	5	1.2%	0

entry	D2 ag	CtBP-E1A inh	TRPML1 agonist
17	-1.6	-1	-0.3
18	-3.7	-20	-0.6
19	-0.5	-3	1.8
20	-2.0	-3	-1.5
21	-0.6	-8	0.8
22	-4.0	13	3.8&2.9
23	-2.0	5	-0.9
24	-3.0	0	0.7

The results go on:
entry	molecule	Six1-Eya2 blk	PINK1 modulator	D2 potentiator
25	O=C(N/N=C/C(Cl)=C\c1ccccc1)c1cccs1	1	6.5%	-14
26	O=C(NC(Cc1c[nH]c2ccccc12)C(=O)O)c1cccc(S(=O)(=O)N2CCCCC2)c1 (stereo not drawn)	3	-0.5%	-11
27	COc1ccc(S(=O)(=O)N(C)CC(=O)N2CCN(C)CC2)cc1C	3	1.2%	-6
28	CN1CCN(Cc2ccc(Sc3ccc(Cl)cc3)c([N+](=O)[O-])c2)CC1	-16	-2.8%	-5
29	C=CCNCCOCCOc1ccccc1-c1ccccc1	-9	1.8%	-13
30	COc1ccc2c(c1)CCc1cn[nH]c1-2	-3	-0.1%	-12
31	O=C(COCc1cc(-c2cccs2)on1)NC1CCCCC1	5	-1.0%	-7
32	Cc1ccc(OS(=O)(=O)c2ccc(N3C(=O)CCC3=O)cc2)cc1	21	0.4%	-6

entry	D2 ag	CtBP-E1A inh	TRPML1 agonist
25	5.0	u	0.6
26	-1.1	-6	-0.2
27	0.4	4	0.4
28	-7.0	u	0.5
29	-3.0	x	-0.3
30	2.9	x	1.0
31	-0.2	8	0.8
32	-3.0	15	0.2

The final four records of the section above open the next one:
entry	molecule	Six1-Eya2 blk	PINK1 modulator	D2 potentiator
29	C=CCNCCOCCOc1ccccc1-c1ccccc1	-9	1.8%	-13
30	COc1ccc2c(c1)CCc1cn[nH]c1-2	-3	-0.1%	-12
31	O=C(COCc1cc(-c2cccs2)on1)NC1CCCCC1	5	-1.0%	-7
32	Cc1ccc(OS(=O)(=O)c2ccc(N3C(=O)CCC3=O)cc2)cc1	21	0.4%	-6
33	O=C(Nc1ccc(-n2cccn2)cc1)C1CCCCN1Cc1cccc2c1OCO2 (stereo not drawn)	-8	3.2%	-13
34	Cc1cc(-n2c(C)cc(C(=O)COc3cccnc3[N+](=O)[O-])c2C)no1	-8	9.3%	8
35	COc1cc(C(C)=O)ccc1OCc1cc(C(=O)N2CCSCC2)no1	-11	0.9%	-8
36	CC1CCCCN1C(=O)CSc1ccc(-c2ccc(F)cc2)nn1 (stereo not drawn)	-3	-1.9%[38.3 µM]	-13
37	COc1ccnc(N2CCN(c3cccc(C(F)(F)F)c3)CC2)c1C#N	6	x	-3
38	CCN(C(=O)CSc1nnc(NCCOC)s1)c1c(N)n(Cc2ccccc2)c(=O)[nH]c1=O	1	-0.7%	-1
39	COCCN1C(=O)CCC1(C)C(=O)NC(C)(C)C (stereo not drawn)	6	0.3%	-1
40	CN(C1CCCCC1)S(=O)(=O)c1ccc(NC(=O)CCC(=O)O)cc1	3	-0.5%	10

entry	D2 ag	CtBP-E1A inh	TRPML1 agonist
29	-3.0	x	-0.3
30	2.9	x	1.0
31	-0.2	8	0.8
32	-3.0	15	0.2
33	-3.2	x	1.7
34	3.2	-25	0.3
35	-4.4	4	0.4
36	6.0	-4	0.2
37	2.2	11	0.5
38	-4.9	-2	0.1
39	3.5	12	0.2
40	1.6	1	0.7

Three compounds drawn at random from those above:
entry	molecule	Six1-Eya2 blk	PINK1 modulator	D2 potentiator
9	Cc1ccc(Nc2nnc(SC3CCOC3=O)s2)c(C)c1 (stereo not drawn)	6	u	-1
11	O=C(CSc1cn[nH]n1)Nc1cccc(C(=O)O)c1	22	0.9%	0
26	O=C(NC(Cc1c[nH]c2ccccc12)C(=O)O)c1cccc(S(=O)(=O)N2CCCCC2)c1 (stereo not drawn)	3	-0.5%	-11

entry	D2 ag	CtBP-E1A inh	TRPML1 agonist
9	1.7	0	1.2
11	1.4	7	-0.6
26	-1.1	-6	-0.2

Other entries.
entry	molecule	Six1-Eya2 blk	PINK1 modulator	D2 potentiator
41	O=C1NCCN1Cc1cccc(Cl)c1	4	16%[38.3 µM]	4
42	Cc1ccc(S(=O)(=O)N=C2SCCCS2)cc1	-1	4.6%	-19
43	COc1ccc(C2C3=C(NCCN=C3c3ccccc3)C(=O)N2c2ccccc2)c(OC)c1 (stereo not drawn)	3	1.2%	-3
44	COC(=O)C1=C(C)NC(=S)N(C(C)=O)C1c1ccc(OC)c(OC)c1 (stereo not drawn)	-2	2.4%	1
45	CC12CCC(C(=O)NCCCN3CCOCC3)(OC1=O)C2(C)C (stereo not drawn)	21	3.0%[38.3 µM]	-2
46	COC(C(=O)Nc1ccc(F)cc1)c1ccccc1 (stereo not drawn)	-5	0.9%	-11
47	O=C(Nc1ccnc(-c2cccnc2)n1)c1cccc(Cl)c1Cl	0	0.9%	-4
48	CC(=O)N1CCc2cc(S(=O)(=O)CCC(=O)N3CCN(c4ccccc4F)CC3)ccc21	2	-1.3%&0.7%	-10

entry	D2 ag	CtBP-E1A inh	TRPML1 agonist
41	0.1	3	0.1
42	-7.7	0	4.4
43	-0.2	10	0.6
44	-6.1	2	0.1
45	-0.4	41	-0.5
46	-4.3	-2	0.7
47	1.7	-13	2.0
48	3.0	-4	0.5&1.4

(continued)
entry	molecule	Six1-Eya2 blk	PINK1 modulator	D2 potentiator
49	O=C(CSc1n[nH]c(-c2cccs2)n1)NCc1cccs1	9	-1.1%	-4
50	Cc1ccc2cc(/C=N/Nc3ccc(C(=O)O)cc3)c(Cl)nc2c1	-7	9.3%	-11
51	Cc1ccc(OC(=O)c2ccccc2C(=O)OCC(F)(F)C(F)F)cc1	29	-1.6%	-11
52	Cc1cc(=O)oc2cc(OC(C)C(=O)NCCCN3CCCC3=O)c(Cl)cc12 (stereo not drawn)	2	0.5%	-5
53	NC(=O)c1snnc1-c1ccccc1	-6	1.1%	-5
54	CC(=O)NCCc1nc2ccccc2n1CCOc1ccccc1C	3	3.5%	-8
55	CCCC(=O)N1CCC1(C)C(=O)Nc1ccc2c(c1)CCN2C(C)=O (stereo not drawn)	7	-0.7%	1
56	Cc1cccc(NC(=O)CN2CCN(C(=O)c3oc4c(Cl)cccc4c3C)CC2)c1C	-21	0.8%	-1

entry	D2 ag	CtBP-E1A inh	TRPML1 agonist
49	-0.8	1	1.4
50	-4.3	x	-0.1
51	-3.2	18	0.4
52	-4.1	6	-0.4
53	-0.5	9	-0.1
54	-3.7	1	x
55	-3.0	-6	-0.4
56	-0.1	-16	1.3

Next section.
entry	molecule	Six1-Eya2 blk	PINK1 modulator	D2 potentiator
57	CCOC(=O)NCc1ccc(S(=O)(=O)Nc2ccccc2C)cc1	-3	-2.3%	-6
58	CCOC(=O)c1nn(-c2ccccc2)c(=O)cc1OCC(=O)Nc1cc(C)ccc1OC	-1	-1.4%	-6
59	COc1cc(OC)cc(C(=O)NCC(=O)OC2CCCCC2=O)c1 (stereo not drawn)	0	-0.8%	0
60	COCCOc1ccc(C(F)(F)F)cc1NC(=O)COC(=O)c1cc([N+](=O)[O-])ccc1N1CCOCC1	-12	4.5%	-14
61	O=C(O)c1cccnc1SC1CC(=O)N(CCc2ccccc2)C1=O (stereo not drawn)	5	3.1%[38.3 µM]	-7
62	CCCCn1c(=O)n(C)c(=O)c2c(C(F)(F)F)cc(-c3ccncc3)nc21	4	-0.4%	20

entry	D2 ag	CtBP-E1A inh	TRPML1 agonist
57	-2.2	4	-0.7
58	-2.8	-4	0.3
59	3.8	1	2.2
60	-6.7	-8	0.6
61	-0.2	9	-0.2
62	-1.7	2	0.0
